# MT1-MMP act inh = MT1-MMP (human) activation inhibition; AID 651647; HT1080 RFP-PRO-GFP cells, GFP/RFP ratio fluorescence, overnight; percent of plate control window, DMSO zero; GFP/RFP ratio change, % at 20 µM; 360,000 compounds, 0.061% hits;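 active means GFP/RFP ratio change of at least 30% with cell ATP level not reduced by more than half and red fluorescence within 50% of control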; further: strong numbers were not always called active
#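 Test system: HT1080 cells expressing an RFP-PRO-GFP fluorescent reporter construct / Compound dosing: single-point 20 µM compound, 1% DMSO / Schedule: cells overnight before dosing, compound overnight, 37 °C, 5% CO2 / Evaluation: GFP/RFP fluorescence ratio / Control set: DMSO and RFP-L50D-GFP cell wells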
# Rce1 inhib = inhibitors of yeast Ras-converting enzyme | yeast membranes, quenched prenylated peptide cleavage fluorescence | calls only | 290,000 compounds, 0.27% hits | AID 2563;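 active means fall in fluorescence gain of 50% or more versus controls, with final raw signal at or below 3038400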;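 further: plate controls were neutral control wells for no effect and wells lacking membranes for full effect; tested at 10 µM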
# Target sequence (Q03530 whole entry, looked up): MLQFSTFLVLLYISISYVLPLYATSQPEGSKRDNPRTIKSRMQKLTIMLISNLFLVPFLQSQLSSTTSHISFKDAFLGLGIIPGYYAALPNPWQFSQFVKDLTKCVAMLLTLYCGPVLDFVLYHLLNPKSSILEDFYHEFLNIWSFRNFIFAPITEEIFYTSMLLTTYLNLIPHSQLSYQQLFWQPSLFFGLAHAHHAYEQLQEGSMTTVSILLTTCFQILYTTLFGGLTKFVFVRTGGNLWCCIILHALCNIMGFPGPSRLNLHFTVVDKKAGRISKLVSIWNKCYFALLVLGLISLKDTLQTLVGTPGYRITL
# eIF4H FP inh = inhibitors of RNA binding by human eIF4H; inhibition, % at 35 µM; 290,000 compounds, 0.94% hits; AID 2012; eIF4H fluorescence polarization binding assay;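 active means 50% or more with normal probe brightness, or confirmed in later tests; about a fifth of its hits are not listed in these tables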;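 further: calls also rest on retests at 20 µM and on dose response follow-up; 0% = protein and probe with vehicle and 100% = probe without protein; strong numbers were not always called active; many hits fall short of the cut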
# UUG fidelity = yeast start codon fidelity modulation; S. cerevisiae UUG-firefly luciferase reporter, luminescence/redox ratio; activity score, % at 18.7 µM; 350,000 compounds, 0.13% hits;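 active means replicate mean at a twofold rise or more, about +100% in these data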;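 further: firefly luciferase made from a UUG start codon reports start codon fidelity; reporter light over untreated wells divided by growth signal over untreated wells; some hits fall short of that in this replicate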
# CSC inhib = blocks cancer stem cells; inhibition, % at 7.5 µM; cancer stem cell-like cells viability, luminescence; 300,000 compounds, 1.1% hits;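 active means mean at 75% or more and at least half the replicates too; tested in HMLE shEcad cells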;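 further: 0% = median of negative and 100% = median of positive control wells; the first replicate is given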
# Env fusion inh = blocks HIV Env-driven cell-cell fusion. HeLa-JRFL Env/CEM21 cell fusion, luciferase. inhibition, % at 12.3 µM. 360,000 compounds, 1.1% hits. AID 651610;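 active means mean replicate inhibition score of at least 50 and every replicate individually at or above 50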;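 further: 0% = plate neutral controls and 100% = maraviroc near 300 nM; one replicate is shown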
# PABP polyA inh = PABP-poly(A) binding inhibition. P11940. PABP-poly(A) RNA binding, fluorescence polarization. inhibition, % at 35 µM. 290,000 compounds, 1% hits;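 active means 50% or more with normal probe brightness, or confirmed in later tests; about a fifth of its hits are not listed in these tables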;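 further: calls also rest on retests at 20 µM and on dose response follow-up; controls were probe without protein and protein plus probe with vehicle; some compounds called inactive have numbers as strong as hits; many hits fall short of the cut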
# Target sequence (P11940 whole entry, looked up): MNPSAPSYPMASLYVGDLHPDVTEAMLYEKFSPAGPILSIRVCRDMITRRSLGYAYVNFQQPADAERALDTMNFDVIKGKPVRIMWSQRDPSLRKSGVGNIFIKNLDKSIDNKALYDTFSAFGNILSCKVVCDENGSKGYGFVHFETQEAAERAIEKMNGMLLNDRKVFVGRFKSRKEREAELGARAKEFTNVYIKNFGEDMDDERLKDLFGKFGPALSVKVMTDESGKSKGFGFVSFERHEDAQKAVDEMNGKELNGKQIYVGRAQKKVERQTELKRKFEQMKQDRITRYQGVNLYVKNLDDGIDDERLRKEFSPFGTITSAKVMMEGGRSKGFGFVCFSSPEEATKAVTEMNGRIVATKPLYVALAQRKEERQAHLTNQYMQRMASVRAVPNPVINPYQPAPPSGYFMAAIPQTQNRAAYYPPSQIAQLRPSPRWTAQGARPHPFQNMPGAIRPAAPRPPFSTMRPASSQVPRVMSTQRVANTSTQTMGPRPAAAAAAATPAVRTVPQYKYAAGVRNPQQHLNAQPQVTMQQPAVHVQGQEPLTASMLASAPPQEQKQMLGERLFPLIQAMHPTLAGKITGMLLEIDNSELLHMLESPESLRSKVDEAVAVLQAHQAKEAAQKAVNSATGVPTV
# MT1-MMP act inh RFP = also measured in MT1-MMP act inh; calls as there; RFP signal change, %; measured here: RFP expression control read;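 0 = vehicle wells; hits needed this value within 50% of zero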
# * hit, by the source's call; i = inactive; . = no result given. A portion of the library, so the mix of outcomes need not match the whole.
SMILES,MT1-MMP act inh,MT1-MMP act inh RFP,Rce1 inhib,eIF4H FP inh,UUG fidelity,CSC inhib,Env fusion inh,PABP polyA inh
Oc1ccc(-c2nc3ccc4ccccc4c3c3c2CCC3)cc1O,-8,-11,i,1,.,109*,-80,7
CCOc1ccc(C(CC(=O)O)NC(=O)C(c2ccccc2)c2ccccc2)cc1OC (stereo not given),2,0,.,.,10,-12,.,.
CC(=O)Nc1ccc(/C(C)=N/Nc2nc(Nc3cccc4ccccc34)nc(N3CCOCC3)n2)cc1,-2,-4,i,3,.,-3,21,-15
COc1ccc(-c2onc(C)c2-c2cnn(-c3ccccc3)c2)c(O)c1,0,-3,i,-2,-22,28,-10,11
CCn1c(SCc2ccc(OC)c(F)c2)nc2ccccc2c1=O,-2,-1,i,5,-14,.,-1,-2
CCCn1c(O)c(N=NC(=O)CNC(=O)/C=C/c2ccc(OC)cc2)c2ccccc21,2,-2,i,5,-17,-6,8,-3
O=C(Nc1ccc(Br)cn1)c1cccc(S(=O)(=O)N2CCCC2)c1,4,-23,.,.,-29,7,56*,.
NS(=O)(=O)c1ccc(NC(=O)c2ccccc2C(=O)N2CCCCC2)cc1,1,11,i,-5,-11,10,-123,-1
Cc1cc(=O)oc2c(C)c(OCC(=O)NCc3ccccn3)ccc12,4,6,i,-2,2,-4,6,1
CCCCCN(C(=O)COC(=O)CSc1ccc([N+](=O)[O-])cc1)c1c(N)n(CCCC)c(=O)[nH]c1=O,-4,-2,i,.,.,-12,1,.
C=C(Cl)COc1ccc2c(CC)cc(=O)oc2c1,4,1,.,4,-1,0,.,7
COc1ccc(C(NC(=O)C2CCN(CCCOc3ccccc3)CC2)c2cccs2)cc1 (stereo not given),4,4,.,.,-15,.,-16,.
O=C(Nc1ccc(N2C(=O)C3CCCCC3C2=O)cc1Cl)c1cccs1 (stereo not given),-1,4,i,5,.,-20,-5,-1
CCCCNC(=O)c1nc(C2CCN(S(=O)(=O)c3ccc(F)c(F)c3)CC2)oc1-c1cccc(C(F)(F)F)c1,-2,-2,.,.,3,.,5,.
CN1CCN(CC(O)COc2ccccc2)CC1 (stereo not given),-1,3,.,4,-11,-12,-8,6
O=C1OC(OC(=O)c2ccccc2Br)C(N2CCOCC2)=C1Cl (stereo not given),7,1,i,4,-14,1,0,-2
Cn1cccc1Cc1nnc(SCC(=O)Nc2ccc3c(c2)OCO3)n1CCc1ccccc1,1,-2,i,3,-1,17,9,-8
Cc1c(C(=O)OCc2nnc(-c3ccccc3)o2)oc2ccccc12,1,1,.,.,-9,-16,.,.
CC(C)c1c(O)nc(SCCN(C)C)[nH]c1=O,1,-2,i,4,-19,-7,-23,6
CCN(CC)/C(=N\S(=O)(=O)c1ccccc1C)c1ccccc1,2,3,i,.,.,12,0,.
COC(=O)c1cccc(NC(=O)CSc2ncn[nH]2)c1,3,2,.,2,-17,-3,.,-8
COc1ccc(CCNS(=O)(=O)c2cccc(S(=O)(=O)N3CCCC3)c2)cc1OC,6,0,i,-2,14,.,.,-9
O=C(CCCSc1nc2ccccc2[nH]1)NCc1ccc(Cl)cc1,-4,-8,i,0,.,8,-1,15
Cc1ccc2[nH]c(=O)c(CN(Cc3ccccc3)Cc3nnnn3C3CCCC3)cc2c1,-12,-10,i,11,-25,-3,.,-2
COC(=O)c1ccccc1NC(=O)Nc1cccs1,-1,2,i,9,-14,2,.,-7
# (more compounds)
SMILES,MT1-MMP act inh,MT1-MMP act inh RFP,Rce1 inhib,eIF4H FP inh,UUG fidelity,CSC inhib,Env fusion inh,PABP polyA inh
CSc1nc2c(c(=O)[nH]c(=O)n2C)n1Cc1ccccc1Cl,2,0,i,-9,-9,-16,-6,-5
CC(C)C(=O)NNC(=O)C1CC1(c1ccccc1)c1ccccc1 (stereo not given),-1,3,i,3,4,-12,-10,4
CC1CN(S(=O)(=O)c2cccc(C(=O)OCC(=O)c3cccs3)c2)CC(C)O1 (stereo not given),1,5,i,-3,-15,6,.,4
CCOc1cccc(C(=O)Nc2ccc(NC(=O)c3cc4ccccc4o3)c(OC)c2)c1,2,-5,i,-6,-4,20,-12,-4
CCOc1ccccc1N(C)C(=O)CCS(=O)(=O)c1ccc2c(c1)NC(=O)CO2,1,3,i,-12,-2,3,0,2
Cc1ccccc1C(=O)OCC(=O)N(C)c1ccccc1,1,2,i,3,0,-4,-2,-11
COc1ccc(NC(=O)CN2c3cccc4cccc(c34)S2(=O)=O)cc1OC,3,-21,.,.,-13,.,21,.
CCc1nnc(NC(=O)CSc2nnc(-c3ccncc3)n2Cc2ccccc2)s1,.,.,i,1,.,.,.,8
COc1ccc(OC)c(-c2cc(C(=O)NCCCn3ccnc3)no2)c1,2,1,i,-8,.,-12,-44,4
CCOC(=O)C1C(C(C)=O)=C(c2ccccc2)c2ccccc2N1S(=O)(=O)C(F)(F)F (stereo not given),-3,2,.,.,-8,.,-4,.
C=CCn1c(SCC(=O)Nc2ccc(NC(=O)c3ccco3)c(OC)c2)nnc1-c1ccncc1,-1,1,i,9,-18,9,-18,10
O=C(COc1ccc(Cl)cc1)NCc1nnc(SCC(=O)NCc2ccc3c(c2)OCO3)o1,0,2,i,-12,-8,10,-33,-9
Cc1cccc2cc(CN(CCc3ccccc3)C(=O)N3CCOCC3)c3nnnn3c12,0,-1,i,-4,-11,-4,-34,-6
Cn1cnc([N+](=O)[O-])c1S(=O)(=O)Nc1ccccc1,8,-3,.,.,-17,.,26,.
O=C(COC(=O)c1cnc(Cl)c(Cl)c1)Nc1cccc(S(=O)(=O)N2CCOCC2)c1,-2,1,.,.,-4,.,-3,.
CCCOC(=O)C1=C(C)NC(=O)NC1c1cc2c(cc1Br)OCO2 (stereo not given),3,-4,i,3,-5,-10,2,15
Cc1ccc(S(=O)(=O)NNC(=O)c2sccc2-n2cccc2)cc1,3,-4,i,-6,.,-18,10,-2
Oc1ccc(C2=CSC3=NCCN23)cc1O,-3,-1,i,4,0,-6,6,1
CCC(C)NS(=O)(=O)c1ccc(NC(=O)Cc2ccc(OC)cc2)cc1 (stereo not given),4,-9,i,-9,-11,7,-4,-7
O=C(CNC(=O)c1cccs1)Nc1ncccc1O,-6,1,i,.,1,0,13,.
COc1cccc(C(=O)NNC(=O)c2cccc(F)c2)c1,-3,-4,i,-2,8,-2,-21,3
CCOc1ccc(N2C(=O)/C(=C\c3ccccc3OC)S(=O)(=O)C2c2cccc([N+](=O)[O-])c2)cc1 (stereo not given),2,0,i,-2,.,-9,.,-3
Cc1cc(OCC(=O)Nc2ccccc2N2CCCCC2)ccc1C(C)C,-9,-8,i,.,.,30,5,.
COc1ccc(C(c2nnnn2C2CCCCC2)N2CCN(c3ccc(OC)cc3)CC2)cc1 (stereo not given),-1,-1,i,-4,-5,10,.,-5
Cc1cc(C)n2c(SCC(=O)Nc3cccc(S(N)(=O)=O)c3)nnc2n1,1,-4,.,.,-15,-1,18,.
# (next part)
SMILES,MT1-MMP act inh,MT1-MMP act inh RFP,Rce1 inhib,eIF4H FP inh,UUG fidelity,CSC inhib,Env fusion inh,PABP polyA inh
CC(C)n1c(O)c(N=NC(=O)c2ccccc2NS(=O)(=O)c2cccs2)c2ccccc21,6,0,i,-2,.,16,-2,-5
CCC(C)C(N)C(=O)NC(CCC(=O)OCc1ccccc1)C(N)=O (stereo not given),6,9,i,-1,-3,-16,.,6
Cc1ccc(NC(=O)CCC(=O)OCC(F)(F)C(F)F)cc1,-3,2,i,-2,-17,-6,2,-3
Cc1ccc(C(=O)NCC2CCCO2)o1 (stereo not given),-1,7,i,12,.,-1,-35,3
O=C(NN=C1CCCC1)c1cc(-c2ccccc2)n[nH]1,1,4,i,-8,.,-4,1,-9
Cc1cc(C)n(-c2ccc(NC(=O)C3CCN(Cc4ccc(C)o4)CC3)cc2)n1,1,3,i,9,-24,-11,-3,2
C#CCNC(=O)C1=C[C@@H](c2ccc(C(F)(F)F)cc2)C[C@@H](OCCCCO)O1,2,2,i,-9,-9,5,-4,-5
O=C(O)CSc1ccc2nnc(-c3cccnc3)n2n1,-2,1,i,7,.,0,10,-1
Cc1ccc(S(=O)(=O)N2CCN(C)CC2)c(C)c1N(C)S(=O)(=O)c1ccc(Cl)cc1,-2,-10,i,5,-5,55,.,2
CCn1c(CC(=O)Nc2ccccc2)nnc1SCC(=O)NC1=NCCS1,4,3,i,-1,-42,10,2,-3
CC1(C)C(=O)OC(c2cccs2)C2(CCCCC2)C1=O (stereo not given),2,3,i,-4,-11,-11,44,-6
CNC(=O)CN(CCc1ccccc1)S(=O)(=O)c1ccc(OC)cc1,-3,-3,i,2,0,2,8,43
C/C(N)=C(/C#N)C(=O)CSc1nc2ccccc2c(=O)n1-c1ccc(C)c(Cl)c1,-9,-8,i,0,-7,33,17,7
CCOC(=O)C1C(c2cccc(Cl)c2Cl)NC(=O)NC1(O)C(F)(F)F (stereo not given),0,2,i,-8,-18,11,-56,-1
Cn1nnnc1SCc1ccc(F)cc1,2,2,i,-4,-23,-6,.,-10
O=C(CN1CCN(S(=O)(=O)c2cc(Cl)ccc2Cl)CC1)c1ccc(O)c(O)c1,-2,-4,i,10,-12,-3,1,0

# Among those listed so far, these have a Cl atom.
SMILES,MT1-MMP act inh,MT1-MMP act inh RFP,Rce1 inhib,eIF4H FP inh,UUG fidelity,CSC inhib,Env fusion inh,PABP polyA inh
C=C(Cl)COc1ccc2c(CC)cc(=O)oc2c1,4,1,.,4,-1,0,.,7
O=C(Nc1ccc(N2C(=O)C3CCCCC3C2=O)cc1Cl)c1cccs1 (stereo not given),-1,4,i,5,.,-20,-5,-1
O=C1OC(OC(=O)c2ccccc2Br)C(N2CCOCC2)=C1Cl (stereo not given),7,1,i,4,-14,1,0,-2
O=C(CCCSc1nc2ccccc2[nH]1)NCc1ccc(Cl)cc1,-4,-8,i,0,.,8,-1,15
CSc1nc2c(c(=O)[nH]c(=O)n2C)n1Cc1ccccc1Cl,2,0,i,-9,-9,-16,-6,-5
O=C(COc1ccc(Cl)cc1)NCc1nnc(SCC(=O)NCc2ccc3c(c2)OCO3)o1,0,2,i,-12,-8,10,-33,-9
O=C(COC(=O)c1cnc(Cl)c(Cl)c1)Nc1cccc(S(=O)(=O)N2CCOCC2)c1,-2,1,.,.,-4,.,-3,.
Cc1ccc(S(=O)(=O)N2CCN(C)CC2)c(C)c1N(C)S(=O)(=O)c1ccc(Cl)cc1,-2,-10,i,5,-5,55,.,2
C/C(N)=C(/C#N)C(=O)CSc1nc2ccccc2c(=O)n1-c1ccc(C)c(Cl)c1,-9,-8,i,0,-7,33,17,7
CCOC(=O)C1C(c2cccc(Cl)c2Cl)NC(=O)NC1(O)C(F)(F)F (stereo not given),0,2,i,-8,-18,11,-56,-1
O=C(CN1CCN(S(=O)(=O)c2cc(Cl)ccc2Cl)CC1)c1ccc(O)c(O)c1,-2,-4,i,10,-12,-3,1,0
